PINK1 modulator = PINK1 expression modulation | PINK1 immunofluorescence, high-content cytometry, 24 h | Potency, µM (series often up to 76.6 µM), for the others: at the highest dose activation (PINK1 increase), actives largely listed as activators | hit rate 0.2% among 410,000; active = well fitted activation curve with a large enough effect; inconclusive = small, poorly fitted or top-dose-only effect; inactive = flat fitted curve, though single readings scatter; cell line not stated here;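 note: potency is the fitted concentration of half-maximal effect; % of control where 0% means no effect; nearly all actives have a fitted effect of over 65% in size; a mitochondrial uncoupler was the plate control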
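A stable cell line was treated with compounds at 5 concentrations for 24 hours, with CCCP as control. PINK1 levels and mitochondrial localization were measured by immunofluorescence with mitochondrial, cell and nuclear markers after fixation, read by laser-scanning cytometry.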
TRPML1 inh = inhibitors of human TRPML1 channel; Q9GZU1; TRPML1-inducible cells, Ca2+ dye fluorescence, FDSS; hits give low values; inhibition of EC80 agonist-evoked calcium signal; activity change, negative = inhibition, % (concentration not given with the values); hit rate 0.02% among 390,000; AID 624415; in the data active means activity change below about -50%; inconclusive means about -30% to -50%; inactive means above about -30%;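 note: stimulus is agonist 54-4 at its EC80 concentration; % is set by controls: 0 for no effect and ±100 for the full control effect; compound concentration not given in the record; the text of the record puts the active cut at -80%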
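TRPML1-DL cells, Tet-induced overnight (~16 h, 37 °C) at 1,500 cells/well, were loaded with Ca8 no-wash dye plus quencher for 45-90 min at room temperature. Compounds were pinned during FDSS kinetic reading; agonist 54-4 at EC80 (4 uM final) then added.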
CtBP-E1A inh = inhibitors of CtBP/E1A interaction; AlphaScreen GST-E1A/His-CtBP binding, 1536-well; hits give low values; control for the full effect not named in the record; hit rate 0.49% among 340,000; AID 651724; activity change, % (concentration not given with the values); in the data active means activity change below about -65%; inconclusive means about -30% to -65%; inactive means above about -30%; note: % is set by controls: 0 for no effect and ±100 for the full control effect
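GST-E1A and His-tagged CtBP (125 nM each as 5X stock) were preincubated with pin-transferred compound for 2 h at 37 °C in the dark, then glutathione donor and nickel acceptor beads were added for 1 h before AlphaScreen reading.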
TRPML1 agonist = human mucolipin-1 channel agonism. activation, % (no concentration beside the values). TRPML1-expressing cells, Ca2+ dye fluorescence, FDSS; host cell line not named in the record; reference of the full effect not given here. hit rate 0.12% among 410,000. AID 624414; in the data active = activation above about 50%; inconclusive = about 30% to 50%; inactive = below about 30%; note: 0% is about no effect; the text of the record puts the active cut at 80%
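In this qHTS format, compounds were pin-transferred onto Ca8-dye-loaded TRPML1-DL cells induced with Tet overnight, and intracellular Ca2+ fluorescence was recorded kinetically for 110 s after a 10 s baseline. A subsequent 4uM final 54-4 (EC80) addition followed by a second 110 s read served as the antagonist phase.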
D2 ag = agonists of human D2 dopamine receptor (beta-arrestin); P14416; DiscoveRx PathHunter D2 beta-arrestin, luminescence, 90 min; 100% = 57 uM dopamine signal; activation, % (no concentration beside the values); hit rate 0.084% among 360,000; in the data active = activation above about 40%; inconclusive = about 15% to 40%; inactive = below about 15%; note: compound concentration not given in the record; the text of the record calls up to 30% inactive
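Agonist mode: compounds alone added to overnight-plated D2 PathHunter cells for 90 min at 37 C, with 57 uM final dopamine (EC100) defining full response. Beta-arrestin recruitment detected by chemiluminescent reagent, read after 1 h at ambient temperature.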
Six1-Eya2 inh = Six1/Eya2 interaction inhibition; hit rate 0.56% among 360,000; Q15475+O00167; AlphaScreen GST-Six1/His-Eya2 binding, biochemical; hits give low values; control for the full effect not named in the record; AID 651725; activity change, % (no concentration beside the values); in the data active = activity change below about -65%; inconclusive = about -30% to -65%; inactive = above about -30%; note: % is set by controls: 0 for no effect and ±100 for the full control effect; compound concentration not given in the record
Target sequence (O00167 whole entry, looked up): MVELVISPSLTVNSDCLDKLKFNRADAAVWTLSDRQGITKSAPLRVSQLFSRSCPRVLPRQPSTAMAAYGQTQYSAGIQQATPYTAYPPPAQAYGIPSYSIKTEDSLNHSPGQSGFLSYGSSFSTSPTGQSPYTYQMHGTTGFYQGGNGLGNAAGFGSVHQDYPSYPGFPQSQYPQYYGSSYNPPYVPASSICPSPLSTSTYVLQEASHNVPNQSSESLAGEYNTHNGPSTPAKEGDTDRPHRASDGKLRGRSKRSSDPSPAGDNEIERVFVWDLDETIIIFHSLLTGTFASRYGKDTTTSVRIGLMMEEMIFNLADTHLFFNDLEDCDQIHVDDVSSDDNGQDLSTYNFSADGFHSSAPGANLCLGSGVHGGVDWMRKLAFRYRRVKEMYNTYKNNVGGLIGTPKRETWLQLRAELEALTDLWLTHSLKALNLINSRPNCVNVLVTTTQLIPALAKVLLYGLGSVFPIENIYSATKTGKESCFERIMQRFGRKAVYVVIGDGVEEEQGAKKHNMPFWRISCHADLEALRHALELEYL
Target sequence (Q15475 whole entry, looked up): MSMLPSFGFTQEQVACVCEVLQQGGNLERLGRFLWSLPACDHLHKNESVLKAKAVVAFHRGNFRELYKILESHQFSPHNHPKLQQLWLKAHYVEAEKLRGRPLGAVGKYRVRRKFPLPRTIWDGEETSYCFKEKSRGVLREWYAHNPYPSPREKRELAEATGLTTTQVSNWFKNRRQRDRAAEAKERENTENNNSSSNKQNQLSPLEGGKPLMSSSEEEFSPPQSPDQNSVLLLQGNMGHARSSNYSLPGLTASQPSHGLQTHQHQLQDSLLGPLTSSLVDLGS
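Compounds are tested against tagged Six1 and Eya2 proteins bridged by glutathione donor and nickel acceptor beads; after a one-hour incubation at 37 °C without light, AlphaScreen emission is recorded.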
Active calls of the source: *; ? = inconclusive; / = not tested or not shown; [ ] = remark or other dose.

The opening 2 compounds, to show the layout:
SMILES	PINK1 modulator	TRPML1 inh	CtBP-E1A inh	TRPML1 agonist	D2 ag	Six1-Eya2 inh
O=C(NCCC1=CCCCC1)C1CCCN(c2nc3ccccc3o2)C1 (stereo not given)	28.9%[38.3 µM]	15.2	0.1	2.2	-2.5	1.4
Cc1cc(C)cc(NC(=O)c2cccc(C(=O)Nc3cc(C)cc(C)c3)n2)c1	-1.5%	-22.5	-5.9	-0.4	1.1	-9.2

The listing, from the start:
SMILES	PINK1 modulator	TRPML1 inh	CtBP-E1A inh	TRPML1 agonist	D2 ag	Six1-Eya2 inh
O=C(NCCC1=CCCCC1)C1CCCN(c2nc3ccccc3o2)C1 (stereo not given)	28.9%[38.3 µM]	15.2	0.1	2.2	-2.5	1.4
Cc1cc(C)cc(NC(=O)c2cccc(C(=O)Nc3cc(C)cc(C)c3)n2)c1	-1.5%	-22.5	-5.9	-0.4	1.1	-9.2
CC1CCN(C(=O)Cn2cc3c(n2)CCCC3)CC1	0.3%	10.8	8.5	0.8	0.7	-1.0
C[C@@H]1NC(=O)N(CCCn2ccnc2)C1=O	0.4%	29.7	/	0.7	0.5	-11.6
N#Cc1c(SC(C(=O)O)c2ccccc2)nc2c(c1-c1cccs1)CCCC2 (stereo not given)	0.0%	-29.1	-10.8	1.9	?	-11.5
O=C(Nc1cc([N+](=O)[O-])ccc1Cl)c1cccnc1	0.2%	-9.7	2.7	0.2	1.4	0.8
Cc1ccc(Nc2nnc(SCC(=O)Nc3ccccc3[N+](=O)[O-])s2)cc1	5.9%	25.0	-27.2	3.4	-5.7	-22.2
c1ccc(Nc2nc(-c3cccs3)cs2)nc1	3.0%	-10.9	0.1	-1.1	-1.6	-10.4
COc1cccc(C2CC(c3ccc(C)cc3)n3nc(N)nc3N2)c1 (stereo not given)	-1.1%	-11.5	-7.0	0.0	-0.4	-18.5
O=C(COC(=O)c1cccc(S(=O)(=O)NCc2ccccc2)c1)NC1CC1	-1.1%	-2.5	-0.2	0.7	-2.4	-12.8
CCOC(=O)c1sc2nc3c(cc2c1N)COC(C)(C)C3	-0.4%	-0.2	7.6	3.1	-1.1	14.0
COc1ccc(S(=O)(=O)N2CCCCC2)cc1NC(=O)CN1CCN(C(C)=O)CC1	4.6%	-3.2	-2.3	0.0	1.1	4.0
CCCc1[nH]nc2c1C(c1ccc(OC)c(Cn3nc(C)c(Br)c3C)c1)C(C#N)=C(N)O2 (stereo not given)	1.0%	-2.3	2.6	1.0	-5.0	-4.1
CCSc1oc(-c2ccco2)nc1S(=O)(=O)c1ccc(F)cc1	-1.3%	-0.7	-6.6	1.1	-2.7	-3.6
COc1ccc(-c2csc(NC(=O)[C@H](C)N3C(=O)C4CC=CCC4C3=O)n2)cc1OC (stereo not given in full)	2.9%	-23.6	-2.5	0.9	0.3	-6.7
CCN1C(=O)[C@H]2[C@@H](c3ccc(Cl)cc3)N3C(=O)CN(CC4CC4)C(=O)[C@@]3(Cc3ccccc3)[C@H]2C1=O	1.1%	12.3	5.4	-0.3	-3.2	-6.2
CC1CCCCN1CC(=O)N1CCCc2c1c(=O)oc1ccc(OCc3ccccc3)cc21 (stereo not given)	2.1%	3.5	/	-0.4	/	/
Cc1cc(C(=O)NCC(=O)OCC(=O)N(C(C)C)C(C)C)ccc1[N+](=O)[O-]	-0.4%	-3.5	4.6	-0.2	1.2	10.0
COCCN=c1scc(-c2cccs2)n1/N=C/c1ccc(O)c(O)c1O	5.7%	43.8	/	2.3	93.7*	-27.0
O=C(CS(=O)(=O)c1cn(Cc2cccc(F)c2)c2ccccc12)N1CCCCC1	7.2%	-1.3	0.7	0.1	-3.0	3.2
CCN(CC)CC#CCC(OC)(c1ccccc1)c1ccccc1	-1.9%	7.2	1.7	-0.4	-2.9	6.7
COc1cccc(-c2nn(C)c3sc(C(=O)N4CCN(c5cccc(C)c5)C(C)C4)cc23)c1 (stereo not given)	8.0%	-4.3	/	-0.6	/	/
CCn1cc(C(=O)N2CCOCC2)c(=O)c2cc(S(=O)(=O)N(C)C3CCCCC3)ccc21	0.9%	9.0	3.4	0.3	-3.1	6.1
O=C(O)CCCC(=O)Nc1ccc(C(=O)NCc2cccnc2)cc1	2.0%	7.9	1.3	-0.1	-2.2	1.1
O=C1c2ccccc2C(=O)N1CCc1csc(NNc2nc(CCN3C(=O)c4ccccc4C3=O)cs2)n1	-1.0%	2.3	-1.8	-0.3	0.8	-22.7
Cc1noc(COc2ccccc2OCc2onc(C)c2Cl)c1Cl	2.7%	29.8	20.5	1.6	-2.2	25.8
Cn1cc(CN2CCCCC2C(=O)Nc2ccc(-n3cccn3)cc2)cn1 (stereo not given)	-0.3%	-8.4	-6.5	-0.7	-2.5	2.1
CCOc1ccc(CN2CCN(Cc3[nH]c4ccc(OC)cc4c3C)CC2CCO)cc1 (stereo not given)	3.2%	2.8	0.0	2.7	0.5	-15.0
O=C(O)c1ccc(/C=N/N2CCN(Cc3ccccc3)CC2)cc1	-0.1%	18.2	5.4	0.9	-5.9	-0.3
O=C(Nc1ccc(S(=O)(=O)Nc2nccs2)cc1)c1ccc(F)c(S(=O)(=O)N2CCOCC2)c1	9.6%	20.0	6.6	-0.8	-1.7	-9.0
CCC(c1nnnn1CCC(C)C)N1CCC(C(N)=O)CC1 (stereo not given)	-0.9%	8.8	3.3	-0.4	-0.2	2.2
Cc1cc(C)c(Nc2nn3c(=O)c4cc5c(cc4nc3s2)OCO5)c(C)c1	0.2%	14.1	/	0.8	/	/
Cc1ccc2oc(C(=O)Nc3ccc(S(=O)(=O)N(C)Cc4ccccc4)cc3)cc(=O)c2c1	6.5%	4.4	/	-0.3	/	/
O=C(NCc1ccc2c(c1)OCO2)c1cccc([N+](=O)[O-])c1	0.5%	-0.7	-16.1	-0.4	-0.9	4.0
COc1ccc(/C=C/c2c(-c3cccc(C)c3)oc3ccc(N4CCOCC4)cc23)cc1	2.1%	68.8	-4.2	-0.5	5.0	-14.8
CC(=O)Nc1ccc(-c2nc3c(C)cccc3[nH]2)cc1	-1.5%	-14.5	-4.5	0.1	0.2	3.0
CS(=O)(=O)N(CCc1ccccc1)CC(=O)N1CCc2ccccc2C1	-1.4%	2.1	2.0	-1.0	-0.1	3.8
COc1ccc2c(c1)/C(=C/c1cc(OC)c(OC)c(OC)c1)C(=O)N2	9.4%	22.6	-6.8	2.0	-0.2	7.8
CN1C(=O)/C(=C/c2ccc(C(F)(F)F)cc2)Sc2ccc(C(=O)N3CCN(c4ccccn4)CC3)cc21	0.2%	-12.0	-12.2	-0.1	-11.1	-4.1
O=S(=O)(NC1CCc2ccccc21)c1ccc(S(=O)(=O)N2CCCC2)cc1 (stereo not given)	/	-13.0	6.2	-0.1	2.9	2.4
CC1CCCCC1NC(=O)CN1CCC(O)(c2ccc3c(c2)OCO3)CC1 (stereo not given)	0.5%	10.8	4.0	-0.2	0.4	0.0
O=C(COC(=O)Cc1ccc(F)cc1)NC(=O)NC1CCCC1	-1.8%	-7.7	-7.9	0.0	-1.5	2.9
COCC(C)NC(=O)CSc1ncnc2sc(-c3ccccc3)cc12 (stereo not given)	2.6%	-19.9	-2.0	-0.5	-0.7	2.3
CCCOc1ccc(N2C(=O)CC(N(CCc3ccc(OC)cc3)C(=O)c3ccccc3)C2=O)cc1 (stereo not given)	3.4%	4.5	1.8	-0.2	-5.6	1.2
CCCN(C(=O)Cc1ccc(S(=O)(=O)N2CCOCC2)s1)c1c(N)n(Cc2ccccc2)c(=O)[nH]c1=O	4.8%	0.8	3.2	1.4	6.7	-2.2
COC(=O)Cc1c(C)nc2nc(-c3ccc(OC)cc3)[nH]n2c1=O	1.3%	34.1	-12.7	-0.3	-1.9	-0.6
CC(=O)CSc1nc(CCc2ccccc2)c(C#N)c(=O)[nH]1	2.5%	1.7	7.0	-0.8	-1.8	-6.0
Cc1ccccc1NC(=O)NC(C)(C)CC(C)(C)C	6.0%	-1.9	6.2	-0.1	-2.8	5.7
Cc1cc(C)c(C)c(S(=O)(=O)NC2CCCCC2)c1C	8.5%	-12.1	8.4	0.7	0.5	2.3
O=C1C2C3C=CC(C3)C2C(=O)N1c1cccc2cccnc12 (stereo not given)	0.0%	9.1	10.9	1.1	1.2	5.5

The results go on.
SMILES	PINK1 modulator	TRPML1 inh	CtBP-E1A inh	TRPML1 agonist	D2 ag	Six1-Eya2 inh
CCOC(=O)C1C(=O)C=C(c2ccc(C)cc2)CC1c1ccc([N+](=O)[O-])cc1 (stereo not given)	0.9%	35.2	-10.4	0.8	0.4	-12.1
Cc1ccc(Cl)cc1N1CCN(C(=O)c2cccn2-c2nnc(N3CCCCC3)s2)CC1	3.2%	38.4	/	1.9	/	/
CC(Oc1ccc(F)cc1)C(=O)NN (stereo not given)	1.4%	-0.3	4.1	-0.5	-1.0	-9.3
Cc1ccccc1NC(=O)CCC(=O)N/N=C/c1cccnc1	0.1%	41.5	4.7	0.7	-5.3	2.1
CCCCOc1ccc(N2C(=O)CC(NCCc3ccc(S(N)(=O)=O)cc3)C2=O)cc1 (stereo not given)	-0.9%	0.9	-23.2	0.1	-0.8	-14.1
O=C(NCC1CCCO1)c1ccc(CS(=O)(=O)c2ccc(Cl)cc2)o1 (stereo not given)	-1.0%[38.3 µM]	9.2	-5.3	0.6	-0.7	4.6
CCCCCCCC(=O)NNC(=O)c1c(O)c2ccccc2[nH]c1=O	-0.5%	1.6	7.1	-0.3	0.3	2.0
CCCN(CCC)C(=O)c1oc2ccccc2c1NC(=O)Cc1cccc(OC)c1	3.7%	-4.3	2.5	1.0	-1.8	6.8
COc1ccc(Cl)cc1-c1csc(N)n1	0.6%	-5.5	/	2.5	-2.1	-2.9
CC(C)CC(=O)NC(=S)Nc1ccc(Cl)cn1	5.3%	10.9	8.1	-0.6	-1.0	6.2
O=C(N=C1SC2CS(=O)(=O)CC2N1c1ccc(Br)cc1Cl)C1CC1 (stereo not given)	-0.5%	14.5	7.1	1.1	3.5	7.2
O=C(CN1CCc2ccccc21)NC(c1ccccc1)c1ccccc1	-0.3%	-7.5	-13.4	1.7	4.2	-2.3
Cc1nc(SCC(=O)Nc2ccc(N3CCOCC3)cc2)nc(C)c1C	0.7%	-13.2	-3.9	0.3	-3.4	6.2
C/C(=N\Nc1ccccc1[N+](=O)[O-])c1ccc(N2CCOCC2)cc1	2.1%	-5.5	-8.8	1.0	-3.4	0.0
CCN1C(=O)/C(=C/C=C2/Sc3ccccc3N2CCO)SC1=S	-0.5%	15.8	-25.8	5.9	-4.5	-4.8
COc1ccc(Br)c(C(=O)OCc2cc(=O)oc3cc(C)ccc23)c1	8.8%	16.0	10.2	0.8	1.4	5.2
CSc1ccc(CN(C)C(=O)c2cccc(S(=O)(=O)NCc3ccccc3)c2)cc1	-0.1%	-1.4	-1.0	-0.7	1.3	-6.0
Cc1nn(-c2ccccc2Cl)c2sc(C(=O)Nc3nnc(C4CC4)s3)cc12	10.1%	-0.3	4.3	1.8	-5.1	14.7
COc1cccc(-n2cc(C(=O)NCc3ccc(C)cc3)c3ccccc3c2=O)c1	3.0%	0.7	/	1.4	/	/
CN1CCN(C2=NCCO2)CC1	0.4%	5.1	4.4	0.1	-3.2	4.5
Nc1nc(SCC(=O)Nc2ccc(Cl)c([N+](=O)[O-])c2)n[nH]1	0.1%	0.3	-0.2	-0.2	-2.9	-4.1
